# Compound activity as filed in PubChem.
# 2A Renilla – FMDV 2A StopGo reporter, Renilla signal; AID 1745857; HEK cells with a luciferase reporter of 2A StopGo recoding; hit rate 0.32% among 120,000; Potency, µM (top dose mostly 57.5 µM), for inactives: at the highest dose signal change, negative = less light; active means well fitted falling curve with a large enough effect; inconclusive means small, poorly fitted or top-dose-only effect; inactive means no such curve, though single readings can be large or run the other way; note: nearly all actives have a fitted effect of over 55% in size; overnight with compound
# StopGo FLuc – lowers the firefly signal of an FMDV 2A StopGo reporter; HEK cells with a luciferase reporter of 2A StopGo recoding; Potency, µM (top dose mostly 57.5 µM), inactives show top-dose signal change, negative = less light; hit rate 0.23% among 120,000; active = well fitted falling curve with a large enough effect; inconclusive = small, poorly fitted or top-dose-only effect; inactive = no such curve, though single readings can be large or run the other way; note: nearly all actives have a fitted effect of over 60% in size; overnight with compound
# The depositor's hits bear a star; ? = inconclusive; [ ] = another dose, or the depositor's remark. % is set by controls: 0 for no effect and ±100 for the full control effect; potency is the fitted concentration of half-maximal effect.
SMILES,2A Renilla,StopGo FLuc
CN(C)C(CNC(=O)c1cc2ccccc2oc1=O)c1ccc(C(C)(C)C)cc1 (centres undefined),-7.0%,33.5%[activator]
COc1cccc(C(N)=O)c1OCc1ccc(SC)cc1,1.9%,52.2%[activator]
COC(=O)c1c(Cc2cc(Cl)ccc2Cl)c[nH]c1C,-1.4%,-5.6%
O=C1CSc2ccc(C(=O)OCc3nc(-c4ccccc4)no3)cc2N1,0.5%,18.2%
Cc1cc(C(=O)Nc2c(C)nc3ccccn3c2=O)ccc1[N+](=O)[O-],-16.9%,-17.3%
CC1c2cc3c(cc2CCN1S(=O)(=O)c1ccc(Cl)c(C(F)(F)F)c1)OCCCO3 (centres undefined),24.4%,-7.7%
CCCn1c(=O)[nH]c(=O)c2c1nc(-c1ccc(OC)c(C)c1)n2CCOC,-11.9%,-7.3%
Cc1ccccc1NC(=O)C1CCN(c2nc3ccccc3o2)CC1,-26.9%,-12.7%
COc1ccc(-c2cn3nc(N4CCCC(C(=O)Nc5cc(C)cc(C)c5)C4)sc3n2)cc1 (centres undefined),-13.3%,13.2%
CCCCN(Cc1cc2cc(OC)ccc2[nH]c1=O)C(=O)c1ccccn1,-15.9%,-3.7%
Cc1c(Cl)cccc1-n1nc(C)c2c(C(=O)NCc3ccccc3)cc(C3CC3)nc21,5.4%,-10.0%
FC(F)(F)c1ccccc1N/N=C/c1ccc(Br)cc1,13.2%,138.6%[activator]
CC1CN(C(=O)Nc2ccc(C(=O)NCc3cccc(F)c3)cc2)c2ccccc2S1 (centres undefined),41.2%[activator],24.4%
CN(C)S(=O)(=O)c1cccc(NC(=O)c2ccc(NS(=O)(=O)c3ccc(F)c(F)c3)cc2)c1,15.6%,-8.4%
O=C(OCc1ncc(-c2ccc(Cl)cc2)o1)c1c(F)cccc1F,-4.3%,50.6%[activator]
CCONC(=O)C(Cc1ccccc1)NC(=O)OCc1ccccc1 (centres undefined),-16.1%,-5.0%
CC(C)c1ccc(S(=O)(=O)c2cnc(SCC(=O)Nc3ccc(F)cc3F)nc2N)cc1,-2.9%,-21.2%
S=C1NC2(CCCCC2)N=C1c1ccc(Cl)c(Cl)c1,11.5%,14.2%
CCCn1c(=O)n(CC(=O)Nc2cccc(OC)c2)c(=O)c2c1nc(C)n2CCOC,-9.5%,-2.4%
O=C(CSc1cn(CC(=O)N2CCOCC2)c2ccccc12)Nc1ccccc1C(F)(F)F,0.0%,-0.2%
O=C(O)CCOc1ccc(Br)cc1,16.9%,0.0%
C=CCNc1nc(C(=O)OCC(=O)NCc2ccccc2OC)cs1,9.3%,1.9%
C#CCNC(=O)NC(CC)c1ccc(C)cc1 (centres undefined),-1.5%,0.0%
COc1ccc(CNC(=O)Cn2c(=O)c3cccn3c3ccccc32)cc1,-7.3%,-23.1%
CCCCc1ccc(Nc2ncnc3c2cnn3-c2ccc(C)cc2)cc1,-14.9%,51.1%[activator]
COc1cc2c(cc1OC)C(COc1ccc(F)cc1)N(C(=O)c1ccc(S(=O)(=O)N3CCCC3)cc1)CC2 (centres undefined),12.8%,25.5%
CCC1CCCCN1C(=O)CSc1nc2c([nH]c3ccccc32)c(=O)n1-c1cccc(OC)c1 (centres undefined),0.0%,?
COc1ccc(C(=O)Cn2c(=O)c(-c3cc(C)ccc3NC(C)=O)nc3ccccc32)cc1,8.2%,7.7%
CCCn1c(=O)c2sccc2n2c(CCCC(=O)N3CCN(c4cccc(C)c4C)CC3)nnc12,-6.9%,-5.2%
O=C(O)CNS(=O)(=O)c1ccccc1C(F)(F)F,9.3%,-5.3%
COc1ccccc1N(CC(=O)NCCSCc1ccccc1Cl)S(C)(=O)=O,24.9%,10.6%
Cc1cccc(C(=O)NCC(c2ccc3c(c2)OCO3)N2CCN(c3ccccc3F)CC2)c1 (centres undefined),-15.4%,6.8%
CCOC(=O)c1c(NC(C)=O)c2c3c(sc2n1Cc1cccc(Cl)c1)CCCC3,43.2%[activator],56.9%[activator]
CC(C)c1ccccc1NC(=O)C=C1CCCCC1,1.8%,61.9%[activator]
O=C(CCc1ccccc1Br)NC1CCN(C2CC2)C1 (centres undefined),-7.1%,-10.6%
Cc1cc(NC(=O)COC(=O)c2sc3ccccc3c2C)no1,20.2%,0.0%
CCOc1ccc(NC(=O)CCc2c(C)c3ccc(C)cc3oc2=O)cc1,-9.1%,2.5%
COC(=O)c1ccc(NC(=O)CC2Nc3cc(C)c(C)cc3NC2=O)cc1 (centres undefined),4.8%,?
CN(CC(=O)Nc1cccc(F)c1)C(=O)c1cc2c(s1)CCCCC2,10.3%,59.7%[activator]
CCc1ccc(Sc2cc(C(=O)NCCCOC(C)C)c3ccccc3n2)cc1,25.4%,-15.2%
CCOc1ccc(CCNC(=O)c2cccn2-c2nnc(N3CCCC3)s2)cc1OCC,16.0%,-0.6%
CCC(=O)Nc1sc2c(c1C#N)CCC(CC)C2 (centres undefined),4.9%,106.4%[activator]
Cc1ccc(NC(=O)CCN2C(=O)c3ccccc3Sc3ncccc32)cc1,1.9%,-1.3%
CCOc1ccc(S(=O)(=O)c2c[nH]c3ccccc3c2=O)cc1,95.6%[activator],-14.8%
CN(C)C1(CNC(=O)CCc2c[nH]c3ccccc23)CCCCCC1,-12.5%,-4.5%
COc1ccc(Br)cc1CNC(=O)c1nn(-c2ccc(C)cc2)c(=O)c2c1c1ccccc1n2C,28.8%,0.0%
CCOC(=O)c1c(C)[nH]c(CCC(=O)Nc2c(Cl)cc(OC)cc2OC)c1C,-21.8%,-8.4%
CCc1ccc(C2c3c(-c4ccccc4O)n[nH]c3C(=O)N2Cc2ccncc2)cc1 (centres undefined),193.6%[activator],-11.9%
CCOC(=O)c1cc(OC(=O)c2cc(OC)cc(OC)c2)n(-c2ccccc2)n1,-5.3%,-3.8%
COc1cc(NC(=O)CCc2c(C)c3ccc(C)cc3oc2=O)cc(OC)c1,9.5%,16.8%
Cc1cccc(C(=O)NC2(C(F)(F)F)N=C(c3ccccc3)N(C3CCCCC3)C2=O)c1 (centres undefined),-6.9%,-17.2%
Cc1ccc(Cl)cc1N1CCN(C(=O)CN2C(=O)COc3ccc(S(=O)(=O)N4CCC(C)CC4)cc32)CC1,1.5%,2.2%
Cc1ccc(S(=O)(=O)NC(=O)NN2CCCCCC2)cc1,2.0%,-9.7%[11.5 µM]
CC(Sc1nnnn1C)C(=O)c1ccc(F)c(F)c1 (centres undefined),-0.7%,6.6%
COc1cccc(C(=O)Nc2ccc(C(=O)OCc3cc(=O)n4cc(C)sc4n3)cc2)c1,-11.2%,55.6%[activator]
Cc1ccc(NC(=O)c2cc3c(s2)CCC3)cc1C,0.0%,164.2%[activator]
COc1ccccc1NC(=O)Cn1cc(C(=O)c2ccncc2)c(=O)c2cc(C)ccc21,-12.6%,13.2%
COc1ccc(S(=O)(=O)N(CC(=O)Nc2cc(C)ccc2OC)Cc2ccccc2)cc1,23.3%,-24.2%
O=C(COC(=O)c1ccc(NC(=O)c2cccs2)cc1)c1ccccc1,1.7%,62.7%[activator]
COc1cccc(-c2nc(S(=O)(=O)c3ccccc3)c(NCc3ccccc3)o2)c1,15.5%,-8.7%

# 3 of these compounds, set out differently.
Molecule	2A Renilla	StopGo FLuc
CCC(=O)Nc1sc2c(c1C#N)CCC(CC)C2 (centres undefined)	4.9%	106.4%[activator]
Cc1ccc(NC(=O)CCN2C(=O)c3ccccc3Sc3ncccc32)cc1	1.9%	-1.3%
CCOc1ccc(S(=O)(=O)c2c[nH]c3ccccc3c2=O)cc1	95.6%[activator]	-14.8%

# Next part:
SMILES,2A Renilla,StopGo FLuc
CN(Cc1cccs1)C(=O)c1cccc(C#N)c1,19.5%,16.4%
COc1cccc(-c2noc(-c3ccc(S(=O)(=O)N4CCCC4)o3)n2)c1,12.4%,44.9%[activator]
CCOC(=O)c1ccc(N2CCN(CC)CC2)c(NC(=O)COc2ccc(CC)cc2)c1,9.3%,-3.6%
COc1cccc(N2CCN(c3ccc(NC(=O)c4ccc(C)cc4)cc3C(=O)O)CC2)c1,5.9%,63.9%[activator]
O=C(NCC(c1cccs1)N1CCOCC1)c1cccc(NC(=O)c2cccs2)c1 (centres undefined),42.0%[activator],13.4%
Brc1ccc(-c2csc(-c3nc(-c4ccc(Br)s4)cs3)n2)cc1,-8.4%,-11.2%
O=C(c1ccc2c(=O)n(-c3cccc(Cl)c3)cnc2c1)N1CCSCC1,2.6%,8.0%
COc1c(CNC(C)c2nnc3n2CCCCC3)c(C(C)C)nn1C (centres undefined),-3.6%,-3.8%
COc1ccc(S(=O)(=O)NC2CC2)cc1NC(=O)c1n[nH]c(=O)c2ccccc12,156.8%[activator],8.7%
O=C1C(=C2SCCS2)CCc2ccccc21,12.7%,136.8%[activator]
CCOC(=O)C(C)NC(=O)NCCC1CCN(C(=O)Nc2cccc(Cl)c2)CC1 (centres undefined),2.8%,13.1%
O=C(CSc1nc(C(F)(F)F)nc2ccccc12)Nc1ccc(O)cc1,4.0%,4.6%
CCC1Oc2ccc(Cl)cc2N(CC(=O)NCCc2ccc(Cl)cc2)C1=O (centres undefined),-17.5%,-21.9%
Cc1cc(F)ccc1NC(=O)CS(=O)(=O)c1cccc2nsnc12,12.8%,-10.5%
COc1ccc(-n2c(SC)nc3sc4c(c3c2=O)CCN(C(C)=O)C4)cc1,-12.5%,-20.0%
COc1ccc(CCNS(=O)(=O)c2c(C)nc3scc(C)n3c2=O)cc1OC,3.4%,2.3%
CCOCCCn1c(=N)c(S(=O)(=O)c2ccc(Cl)cc2)cc2c(=O)n3cccc(C)c3nc21,-4.0%,8.6%
COc1ccc(OC)c(-n2nnc3c(sc4nc(C)c(Br)c(C)c43)c2=O)c1,-9.7%,7.2%
O=C(Cn1c(=O)n(CCCS(=O)(=O)C2CCCCC2)c(=O)c2ccccc21)Nc1ccccc1C(F)(F)F,-9.1%,0.0%
CCN(C(=O)c1cc2cc(Br)ccc2oc1=O)C1CCCCC1,3.2%,5.9%
O=C(NC1CCCCC1)c1cccc2ccccc12,39.3%[activator],42.9%[activator]
C=CCN(CC#Cc1ccccc1)Cc1ccc(OC)cc1OC,-3.0%,-3.0%
CC(NC(=O)c1ccc(C(C)(C)C)cc1)C(=O)NC(Cc1ccc(O)cc1)C(=O)O (centres undefined),-0.7%[1.06 µM],32.6%[activator]
CCOc1ccc(N(CC)C(=O)c2cc3c(=O)oc4ccccc4c3s2)cc1,-4.6%,-18.8%
COc1ccc2cc(/C=C3\SC(=O)NC3=O)ccc2c1,0.0%,185.7%[activator]
O=C(N1CCN(C/C=C/c2ccccc2)CC1)C(F)(F)C(F)(F)C(F)(F)C(F)(F)F,7.1%,-7.5%

# Compounds shown so far with a Cl atom (13):
SMILES,2A Renilla,StopGo FLuc
COC(=O)c1c(Cc2cc(Cl)ccc2Cl)c[nH]c1C,-1.4%,-5.6%
CC1c2cc3c(cc2CCN1S(=O)(=O)c1ccc(Cl)c(C(F)(F)F)c1)OCCCO3 (centres undefined),24.4%,-7.7%
Cc1c(Cl)cccc1-n1nc(C)c2c(C(=O)NCc3ccccc3)cc(C3CC3)nc21,5.4%,-10.0%
O=C(OCc1ncc(-c2ccc(Cl)cc2)o1)c1c(F)cccc1F,-4.3%,50.6%[activator]
S=C1NC2(CCCCC2)N=C1c1ccc(Cl)c(Cl)c1,11.5%,14.2%
COc1ccccc1N(CC(=O)NCCSCc1ccccc1Cl)S(C)(=O)=O,24.9%,10.6%
CCOC(=O)c1c(NC(C)=O)c2c3c(sc2n1Cc1cccc(Cl)c1)CCCC3,43.2%[activator],56.9%[activator]
CCOC(=O)c1c(C)[nH]c(CCC(=O)Nc2c(Cl)cc(OC)cc2OC)c1C,-21.8%,-8.4%
Cc1ccc(Cl)cc1N1CCN(C(=O)CN2C(=O)COc3ccc(S(=O)(=O)N4CCC(C)CC4)cc32)CC1,1.5%,2.2%
O=C(c1ccc2c(=O)n(-c3cccc(Cl)c3)cnc2c1)N1CCSCC1,2.6%,8.0%
CCOC(=O)C(C)NC(=O)NCCC1CCN(C(=O)Nc2cccc(Cl)c2)CC1 (centres undefined),2.8%,13.1%
CCC1Oc2ccc(Cl)cc2N(CC(=O)NCCc2ccc(Cl)cc2)C1=O (centres undefined),-17.5%,-21.9%
CCOCCCn1c(=N)c(S(=O)(=O)c2ccc(Cl)cc2)cc2c(=O)n3cccc(C)c3nc21,-4.0%,8.6%

# Not all compounds are listed; the hit share may differ from the screen's.
